Mtb hypoxia rep: reduces hypoxia-regulated biosensor signal in M. tuberculosis; M. tuberculosis hypoxia-regulated fluorescent reporter, fluorescence; fluorescence inhibition, % (no concentration beside the values); actives 0.1% (n = 300,000); AID 1159583;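 active = 35 to 45% if threefold the growth effect, above 45% if 1.5-fold the growth effect; inactive = the rest, general growth blockers included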;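 also: wells of about 50 µL received 100 nL stock; 0% = vehicle wells and 100% = reference inhibitor wells; whole bacteria with a GFP reporter of the hypoxia response; strong numbers were not always called active; many hits fall short of the cut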
BJeLR viability: kills HRASV12-expressing BJeLR cells | inhibition, % (test concentration not listed) | actives 0.17% (n = 300,000) | BJeLR (HRASV12) viability, CellTiter-Glo ATP luminescence, 48 h; reference of the scale not given here;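 active = replicate mean above 50%; inconclusive = above 50% but judged a plate artefact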;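 also: 50 nL library stock added to about 25 µL; numbers are from one replicate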
PrP 5UTR inh: inhibition of PrP 5' UTR reporter expression. cell-based PrP 5' UTR mRNA reporter, plate reader. actives 0.35% (n = 340,000). inhibition, % (concentration not given with the values);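 active = every replicate at 50% or more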;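 also: 0 = median of the neutral control wells; tested in H4 reporter cells; numbers are from one replicate; inactives centre near -14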
Sa RN4220 lethal: S. aureus RN4220 growth inhibition. OD600, 16 h. inhibition, % (no concentration beside the values). actives 0.33% (n = 330,000);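 active = z-score of -3 or lower and OD600 up to 0.18 on both plates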;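 also: plate controls were untreated cells for no effect and reference antibiotic for full effect; stock transfer was 100 nL into about 80 µL; one replicate is shown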
Autofluor counter: flagged as autofluorescent in microsphere protease counterscreen. compound autofluorescence counterscreen, microsphere flow cytometry; stronger effect = higher value. fluorescence intensity (concentration not given with the values). actives 3.1% (n = 360,000). AID 624483;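 active = at least 3 SD above the mean of all compounds, about 16000 in these data; inconclusive = too few beads counted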;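 also: 100 nL of 1 mM stock went into each well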
Sa ugtP lethal: kills S. aureus RN4220 lacking UgtP. growth inhibition, % (test concentration not listed). AID 1259309. actives 0.54% (n = 330,000). S. aureus RN4220 ugtP deletion, OD600 growth, 16 h; some inactives read as strong as hits;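 active = z-score under -3 and OD600 up to 0.15 on both plates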;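 also: plate controls were untreated wells for no effect and antibiotic for full effect; wells of about 80 µL received 100 nL stock; the first replicate is given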
Mtb hypoxia rep growth: recorded beside Mtb hypoxia rep, whose call it bears; growth inhibition, %; measured here: M. tuberculosis growth (absorbance);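 0% = vehicle and 100% = reference antibiotic; read after six days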
* = called active by the depositor; ? = inconclusive; . = no result given.

SMILES	Mtb hypoxia rep	Mtb hypoxia rep growth	BJeLR viability	PrP 5UTR inh	Sa RN4220 lethal	Autofluor counter	Sa ugtP lethal
Cc1nc(N/N=C\c2ccc3c(c2)OCO3)sc1C	.	.	-2	-76	.	4084	.
CN(Cc1ccccc1)C(=O)COc1ccccc1	.	.	3	-25	5.0	2847	5
COc1cc(OC)cc(C(=O)N[C@H](C(=O)OCC(=O)Nc2ccc(C(N)=O)cc2)C(C)C)c1	.	.	-14	-14	.	2461	.
O=C(NCc1cccc(F)c1)c1cccc(OC2CCN(C(=O)C3CC3)CC2)c1	14	-4	7	-16	0.5	5942	13
COC(=O)Cn1c(=O)c(C)nc2ccccc21	9	14	2	-15	2.6	4050	2
COc1ccc(OCc2cc(C(=O)N3CCCC3)no2)c2ccccc12	3	8	2	-77	3.9	5649	-8
CCOc1ccc(N(CC(=O)Nc2ccccc2OC)S(C)(=O)=O)cc1	9	2	-3	-22	6.9	3858	-3
CCOC(=O)C1(Cc2cccc(OC)c2)CCCN(S(=O)(=O)N(C)C)C1 (stereo not given)	17	8	-13	-14	8.6	3703	-1
C=CCNC(=O)c1cc(-c2ccc(Br)cc2)on1	12	12	-1	-36	4.6	22477*	-1
CC(=O)Nc1ccccc1NC(=O)CC(C)=NNC(=O)c1cccnc1	-7	-4	.	.	6.2	.	-1
CCOC(=O)c1c(NC(=O)c2ccc(S(=O)(=O)N3CCOCC3)cc2)sc2c1CCN(C)C2	-1	-3	-2	16	4.7	10887	8
O=C1c2cccc3cccc(c23)C(=O)N1/N=C/c1ccc(O)cc1O	.	.	-2	-15	.	2458	.
CC1CCCC(NC(=O)COC(=O)c2c[nH]c(=O)[nH]c2=O)C1C (stereo not given)	8	10	.	-11	4.3	3191	5
CC(C)(C)NC(=O)NCC1CCCC1NC(=O)NC(C)(C)C (stereo not given)	3	-9	-5	-7	5.3	3270	9
COc1cccc(NC(=O)CCN2CCOCC2)c1	7	11	-5	-21	-1.3	4235	10
COc1ccccc1NC(=O)Cn1cnc2sc(C)c(S(=O)(=O)N3CCCCC3)c2c1=O	-4	-4	-1	-19	-3.0	2285	4
CCCCn1nc(C(=O)Nc2ccc(-n3cnnn3)cc2)c2ccccc2c1=O	13	3	.	.	2.9	.	-13
COc1ccc(S(=O)(=O)N2CCCCCC2)cc1C(=O)N1CCCC(C(F)(F)F)C1 (stereo not given)	0	5	7	-19	0.5	?	0
COc1ccc(CCNC(=O)C(=O)NCC2CCCN2S(=O)(=O)c2cccs2)cc1 (stereo not given)	-7	2	2	-21	-1.9	5487	-7
CC(C)C1Oc2ccccc2N(CC(=O)N(Cc2ccncc2)Cc2ccco2)C1=O (stereo not given)	5	2	-7	-22	0.0	9363	-2
CCOc1ccc(CCNC(=O)CN2CCN(Cc3ccc(F)cc3)C2=O)cc1OCC	.	.	0	-22	-3.0	2321	2
COc1ccc(C(CCN(Cc2ccc(OC)c(OC)c2)C(C)=O)C(C)C)cc1 (stereo not given)	-2	3	2	-7	2.3	3938	5
O=c1oc2ccccc2c(NC2CCCCC2)c1NS(=O)(=O)c1ccc(Cl)cc1	0	-10	3	-8	1.8	.	-15
CC(C)Cc1cc(C(=O)N2CCCC(C(=O)c3cc(F)ccc3F)C2)no1 (stereo not given)	9	5	-1	-19	0.1	5382	8
S=c1[nH]nc(CSCc2ccccc2Cl)n1C1CCCCC1	8	1	5	-8	3.8	3236	4
Cc1ccc(NC(=O)C2CCCN2S(=O)(=O)c2ccc3c(c2)n(C)c(=O)c(=O)n3C)cc1 (stereo not given)	6	-2	0	-12	1.9	4802	-2
COc1ccc(-c2cc(=O)oc3cc(OCC(=O)NCCN4CCOCC4)ccc23)cc1	10	5	9	1	1.0	4104	0
Cc1cc(S(=O)(=O)NCc2ccc3c(c2)OCO3)ccc1F	9	2	-3	-25	2.5	3017	2
O=C1N=NC(=O)N1c1ccccc1	.	.	2	-6	.	5891	.
CC(C)Oc1ccc(C(=O)Nc2c3c(nn2C(C)(C)C)CS(=O)(=O)C3)cc1	2	7	15	-2	1.2	5593	11
COC(=O)CN(C#N)c1nc(NC(C)C)nc(OC)n1	13	8	9	7	5.3	8816	13
Cc1noc(C)c1COc1ccccc1C(=O)N(C)CC(=O)Nc1ccc(Cl)c(Cl)c1	0	-4	-4	7	1.8	?	6
Cc1ccccc1NC(=O)NCc1cccnc1	12	10	2	-10	4.3	.	13
N#Cc1nc(-c2cccs2)oc1NCCN1CCOCC1	.	.	-1	-7	-1.3	2115	0
CCCOC(=O)Nc1nc2ccccc2o1	6	2	-9	-69	3.8	3525	2
Cc1nn(C(C)C(=O)NC2CCCCCC2)c(=O)c2nn(-c3ccccc3)c(C)c12 (stereo not given)	14	8	-2	-14	2.9	6109	-4
CC1(C)CC(N=c2cc(-c3ccccc3)oc3ccc(Cl)cc23)CC(C)(C)N1	.	.	12	-21	-2.5	3351	-8
O=C(NCCCN1CCOCC1)c1cc(S(=O)(=O)N2CCOCC2)ccc1Cl	-10	8	.	-17	-1.2	3769	1
O=C(NC1CCCC1)c1ccc(CSCc2ccccc2F)o1	8	2	5	-29	3.2	23171*	10
CC(C)CCn1nnnc1CN1CCN(c2ccccc2)CC1	21	11	-2	-21	6.9	4067	11
CC(NC(=O)CS(=O)(=O)c1ccccc1)c1ccccc1 (stereo not given)	7	-7	-7	-18	2.6	6340	-3
CCCS(=O)(=O)N1CCCC(C(=O)NCc2cccnc2)C1 (stereo not given)	11	5	9	-10	-15	2818	-5
Cc1ccccc1C(=O)Nc1nnc(S(=O)(=O)N(C)Cc2ccco2)s1	4	-2	1	-16	9.9	5775	5
N/C(=N\OC(=O)c1ccccc1Cl)c1ccncc1	7	-1	0	-79	1.8	3441	1
Cc1ccc(NC(=S)N2CCCC(c3ccccc3)=N2)cc1	-8	7	-1	-18	7.6	4652	2
O=C(/C=C/c1ccc(OCCCF)cc1)Nc1ccnc(-c2cccnc2)n1	9	8	8	-15	4.1	4036	-1
Cc1cccc(C)c1OCc1cc(C(=O)N2CCC(C3CCCCC3)C2)no1 (stereo not given)	6	2	3	-68	-7.8	4331	3
COc1cc(C2C(C#N)=C(N)Oc3cc(O)ccc32)cc2c1OCO2 (stereo not given)	1	3	-2	6	8.9	3564	19
Cc1ccc(NC(=O)CNc2cccc(Br)c2)cc1S(=O)(=O)N1CCOCC1	15	9	.	-9	6.0	3488	-13
Nc1nc(Cl)c(C=O)c(N2CCCCC2)n1	6	0	11	-10	4.9	4959	4
COc1ccc2nc(COC(=O)c3cccc([N+](=O)[O-])c3)c(C(C)=O)[n+]([O-])c2c1	-1	0	5	-24	2.3	4478	-4
CSC(=Nc1ccc(Cl)cc1)N[n+]1ccccc1	14	16	9	-16	3.5	8265	2
NS(=O)(=O)c1ccc(NC(=S)NCc2ccc(Cl)cc2)cc1	.	.	-3	-6	-2.4	2625	1
CCOCC(=O)Nc1nnc(C)s1	-9	5	-2	-25	1.8	3766	-3
O=C(CN1C(=O)NC2(CCCC2)C1=O)N1CCN(S(=O)(=O)c2ccc(Cl)c(C(F)(F)F)c2)CC1	8	-2	-3	-4	3.1	6375	3
Cc1ccc(NC(=O)CN2CCN(Cc3ccccc3)CC2)c(Br)c1	17	5	7	-7	3.7	3974	9
COc1ccccc1NC(=O)C(=O)N/N=C(\C)CC(=O)Nc1ccccc1C(F)(F)F	.	.	-7	-13	.	3641	.
CCc1cccc(NC(=O)C2CCCN(c3cnccn3)C2)c1 (stereo not given)	3	4	-8	-13	1.8	6541	0
O=C1CC(SCCc2nc3ccccc3[nH]2)C(=O)N1c1ccc(F)cc1 (stereo not given)	5	4	0	3	3.6	7967	13
COC(=O)c1cc(NC(=O)COC(=O)CCc2nc3ccccc3c(=O)[nH]2)cc(C(=O)OC)c1	5	1	.	-12	5.7	2982	13
(more compounds)
SMILES	Mtb hypoxia rep	Mtb hypoxia rep growth	BJeLR viability	PrP 5UTR inh	Sa RN4220 lethal	Autofluor counter	Sa ugtP lethal
COc1ccc(NC(=O)CC23CC4CC(C2)CC(n2nnc(C)n2)(C4)C3)cc1	-20	-2	7	-27	-0.3	5443	-7
Cc1ccc(NC(=O)CSc2nc3ccccc3c(=O)n2CCCC(=O)NCCCN2CCOCC2)cc1C	8	15	3	-25	4.1	3314	3
CN1CCNC(=O)C1CC(=O)NCCC1=CCCCC1 (stereo not given)	2	12	8	-11	12	4790	15
O=C(N/N=C/c1ccccc1C(F)(F)F)c1ccc(O)cc1	.	.	1	-63	.	3175	.
COc1ccc(-n2nc3c(c2NC(=O)CBr)CSC3)cc1	1	5	-6	10	4.1	5292	6
Cc1ccc(CC(=O)N2CCC(c3nc4c(nnn4Cc4ccccc4)c(=O)[nH]3)CC2)cc1	-4	8	3	-48	3.6	4447	-3
c1ccc2c(c1)nc(N1CCCCC1)c1ccccc12	11	5	-2	-4	-4.2	4416	23
O=C(CSc1nnc2ccc(-c3cccnc3)nn12)Nc1cccc(F)c1	-11	-5	-3	-20	2.4	5539	2
Cn1c(=O)c2c(SC3CCCC3)nc(C3CC3)nc2n(C)c1=O	10	11	2	-36	-9.1	6542	-8
O=[N+]([O-])c1cccc(C=NNc2ccccc2)c1	12	13	.	-36	2.3	4108	-3
CCN1C(=O)/C(=C/c2cccs2)S/C1=N\S(=O)(=O)c1ccc(C)cc1	.	.	5	-9	.	8426	.
Cc1ccc(-n2ncc(Cl)c2C(=O)NC2CC2)cc1	1	-6	10	-74	6.5	4105	4
Cc1ccccc1Nc1nc(N)nc(COC(=O)c2c(C)noc2C)n1	4	3	.	-15	1.7	3955	5
COc1ccc(C(=O)NN=C(C)CC(=O)Nc2ccc(Cl)cn2)cc1	-9	-2	.	.	1.6	.	0
COc1cc(CCN2C(=O)c3cccc4cccc(c34)C2=O)c(S(=O)(=O)NCCO)cc1OC	1	1	6	-6	3.8	2185	0

Reformatted field by field: entries from further up
COc1ccc(-c2cc(=O)oc3cc(OCC(=O)NCCN4CCOCC4)ccc23)cc1
  Mtb hypoxia rep: 10	Mtb hypoxia rep growth: 5	BJeLR viability: 9	PrP 5UTR inh: 1	Sa RN4220 lethal: 1.0	Autofluor counter: 4104	Sa ugtP lethal: 0
O=c1oc2ccccc2c(NC2CCCCC2)c1NS(=O)(=O)c1ccc(Cl)cc1
  Mtb hypoxia rep: 0	Mtb hypoxia rep growth: -10	BJeLR viability: 3	PrP 5UTR inh: -8	Sa RN4220 lethal: 1.8	Autofluor counter: .	Sa ugtP lethal: -15

(next part)
SMILES	Mtb hypoxia rep	Mtb hypoxia rep growth	BJeLR viability	PrP 5UTR inh	Sa RN4220 lethal	Autofluor counter	Sa ugtP lethal
COc1ccc(OC)c(-c2cc(C(=O)Nc3c(C)nn(Cc4ccccc4Cl)c3C)no2)c1	-3	8	3	-15	-2.4	12387	12
CC1CCc2cc(F)ccc2N1C(=O)C12CCC(C)(C(=O)O1)C2(C)C (stereo not given)	9	8	8	-11	7.0	4203	1
CCOc1ccccc1N1CC(C(=O)N(C)Cc2cccnc2)CC1=O (stereo not given)	5	1	-6	-20	3.3	3224	1
CCCn1cc(S(=O)(=O)CC(=O)Nc2ccc(OC)cc2OC)c2ccccc21	2	7	0	-4	9.5	8214	-3
O=C(c1ccco1)N1CCN(c2ncccn2)CC1	-6	-3	-1	-25	-7.7	6507	7
COCCNC(=O)c1ccc2c(c1)nc(C)n2-c1cccc(F)c1	.	.	0	-11	1.4	2113	5
CCC(C)(C)NC(=O)C(c1ccccc1)N(Cc1cccnc1)C(=O)c1csnn1 (stereo not given)	14	16	5	-15	6.2	3777	-4
Cn1cc(CC(=O)NCCCN2CCCC2=O)c2ccccc21	0	-11	13	-8	4.0	4383	6
CN1CCN(CCC(=O)N/N=C/c2cc([N+](=O)[O-])ccc2O)CC1	.	.	2	-21	.	2163	.

Reformatted in markdown: entries from further up
| smiles | Mtb hypoxia rep | Mtb hypoxia rep growth | BJeLR viability | PrP 5UTR inh | Sa RN4220 lethal | Autofluor counter | Sa ugtP lethal |
| --- | --- | --- | --- | --- | --- | --- | --- |
| CN1CCN(CCC(=O)N/N=C/c2cc([N+](=O)[O-])ccc2O)CC1 | . | . | 2 | -21 | . | 2163 | . |
| CCOCC(=O)Nc1nnc(C)s1 | -9 | 5 | -2 | -25 | 1.8 | 3766 | -3 |
| O=C(N/N=C/c1ccccc1C(F)(F)F)c1ccc(O)cc1 | . | . | 1 | -63 | . | 3175 | . |
| CCOc1ccccc1N1CC(C(=O)N(C)Cc2cccnc2)CC1=O (stereo not given) | 5 | 1 | -6 | -20 | 3.3 | 3224 | 1 |
| COc1ccccc1NC(=O)C(=O)N/N=C(\C)CC(=O)Nc1ccccc1C(F)(F)F | . | . | -7 | -13 | . | 3641 | . |

From PubChem
